Source: PubChem BioAssay (Broad Institute)
Env fusion inh – blocks HIV Env-driven cell-cell fusion; HeLa-JRFL Env/CEM21 cell fusion, luciferase; inhibition, % at 12.3 µM; AID 651610; 1.1% of 360,000 active;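 active means mean replicate inhibition score of at least 50 and every replicate individually at or above 50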;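 further: 0% = plate neutral controls and 100% = maraviroc near 300 nM; one replicate is shown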
Yeast UUG start – alters start codon recognition fidelity in yeast; 0.13% of 350,000 active; activity score, % at 18.7 µM; AID 602363; S. cerevisiae UUG-firefly luciferase reporter, luminescence/redox ratio;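 active means replicate mean at a twofold rise or more, about +100% in these data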;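 further: firefly luciferase made from a UUG start codon reports start codon fidelity; reporter light over untreated wells divided by growth signal over untreated wells; some hits fall short of that in this replicate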
Active calls of the source: *; [ ] = dose if it differs, or a comment.

Env fusion inh	Yeast UUG start	Compound
20.6[16.7 µM]	-10.5	C[C@H](CO)N1C[C@H](C)[C@@H](CN(C)C(=O)C2CCOCC2)Oc2ncc(C#Cc3ccccc3F)cc2C1=O
0.0[16.7 µM]	-6.5	O=C(C[C@@H]1C=C[C@@H](NC(=O)c2ccccc2)[C@@H](CO)O1)NCc1ccncn1
9.6[16.7 µM]	1.2	CN1CCN(C(=O)C[C@@H]2C[C@@H]3c4cc(NC(=O)C5CCOCC5)ccc4O[C@@H]3[C@H](CO)O2)CC1
-36.0[16.7 µM]	-11.9	C[C@H]1CN([C@@H](C)CO)C(=O)c2cc(C#CCc3ccccc3)cnc2O[C@H]1CN(C)C(=O)Cc1cccnc1
4.9[16.7 µM]	-4.5	C[C@@H]1CCCCO[C@@H](CN(C)C(=O)Cc2ccccc2)[C@H](C)CN([C@H](C)CO)C(=O)c2cc(NC(=O)Nc3ccccc3)ccc2O1
-13.1[16.7 µM]	-1.7	COCC(=O)N(C)C[C@@H]1Oc2ncc(C#CC3(O)CCCC3)cc2C(=O)N([C@H](C)CO)C[C@H]1C
14.6[16.7 µM]	6.8	COc1ccc(S(=O)(=O)Nc2ccc3c(c2)C(=O)N([C@H](C)CO)C[C@@H](C)[C@@H](CN(C)C(=O)Nc2ccc(F)cc2)O3)cc1
-7.0[16.7 µM]	25.0	CNC[C@@H]1OCCCC[C@H](C)Oc2ccc(NS(=O)(=O)c3ccc(C)cc3)cc2C(=O)N([C@@H](C)CO)C[C@H]1C
19.8[16.7 µM]	-4.0	C[C@H](CO)N1C[C@H](C)[C@@H](CN(C)S(C)(=O)=O)Oc2ncc(C#Cc3ccc(F)cc3)cc2C1=O
17.0[16.7 µM]	-27.3	C[C@@H]1CCCCO[C@@H](CN(C)C(=O)Nc2ccc(C(F)(F)F)cc2)[C@H](C)CN([C@@H](C)CO)C(=O)c2cc(NS(=O)(=O)c3cccs3)ccc2O1
27.8[16.7 µM]	-4.4	COc1ccc(S(=O)(=O)N[C@@H]2CC[C@H](CCNC(=O)c3ccccc3F)O[C@@H]2CO)cc1
-27.9[16.7 µM]	2.8	C[C@@H]1CN([C@@H](C)CO)C(=O)c2cc(NS(=O)(=O)c3cccs3)ccc2O[C@@H]1CN(C)S(=O)(=O)c1ccc(F)cc1
0.0[16.7 µM]	4.6	C/C=C/c1cnc2c(c1)C(=O)N([C@H](C)CO)C[C@H](C)[C@H](CN(C)Cc1ccccc1)O2
-6.0[16.7 µM]	-8.8	CC(C)NC(=O)N(C)C[C@H]1Oc2ccc(NC(=O)Cn3cnnn3)cc2CC(=O)N([C@@H](C)CO)C[C@@H]1C
14.1[16.7 µM]	14.2	CN(C)CC(=O)N[C@@H]1CC[C@@H](CCNC(=O)Nc2ccc(F)cc2)O[C@@H]1CO
3.1[16.7 µM]	3.8	C[C@@H]1CN([C@@H](C)CO)C(=O)c2cc(C#Cc3ccccn3)cnc2O[C@H]1CN(C)CC1CCOCC1
-10.4[16.7 µM]	-20.9	CO[C@H]1CN(C)C(=O)c2ccc(NC(C)=O)cc2OC[C@@H](C)N(Cc2ccccn2)C[C@H]1C
6.4[16.7 µM]	-11.4	C[C@@H]1CN([C@@H](C)CO)C(=O)c2cc(C#CC3CCCC3)cnc2O[C@H]1CN(C)Cc1ccncc1
8.5[16.7 µM]	6.2	CC(=O)Nc1ccc2c(c1)C(=O)N(C)[C@H]1CC[C@H](CC(=O)Nc3cccc(Cl)c3)O[C@@H]1CO2
12.7[16.7 µM]	-21.6	C[C@H](CO)N1C[C@H](C)[C@H](CN(C)C(=O)C2CCCCC2)OCCCC[C@H](C)Oc2ccc(NC(=O)Nc3cccc4ccccc34)cc2C1=O
-11.1[16.7 µM]	-2.6	CCCNC(=O)N[C@@H]1CC[C@@H](CCn2cc(C3CCCCC3)nn2)O[C@@H]1CO
9.2[16.7 µM]	-15.6	Cc1noc(C)c1NC(=O)Nc1ccc2c(c1)CC(=O)N([C@H](C)CO)C[C@@H](C)[C@H](CN(C)Cc1ccc(C(=O)O)cc1)O2
-0.1[16.7 µM]	5.0	C[C@H](CO)N1C[C@H](C)[C@@H](CN(C)S(=O)(=O)c2ccccc2)Oc2ccc(NC(=O)C3CC3)cc2CC1=O
-1.9[16.7 µM]	-19.9	COc1ccc(NC(=O)Nc2ccc3c(c2)C(=O)N([C@H](C)CO)C[C@@H](C)[C@H](CN(C)C(=O)Nc2ccc(C(F)(F)F)cc2)OCCCC[C@@H](C)O3)cc1
-22.1[16.7 µM]	-16.8	CC(C)NC(=O)N(C)C[C@H]1OCCCC[C@H](C)Oc2ccc(NC(=O)NC3CCCCC3)cc2C(=O)N([C@@H](C)CO)C[C@H]1C
33.9[16.7 µM]	7.2	C[C@H](CO)N1C[C@H](C)[C@H](CN(C)S(=O)(=O)c2cccs2)Oc2ccc(NC(=O)CCCCCC(=O)Nc3ccccc3N)cc2CC1=O
-3.7[16.7 µM]	9.1	COCC#Cc1cnc2c(c1)C(=O)N([C@H](C)CO)C[C@H](C)[C@@H](CN(C)C(=O)C1CC1)O2
-33.7[16.7 µM]	16.6	C[C@H](CO)N1C[C@H](C)[C@@H](CN(C)C(=O)CN2CCOCC2)Oc2ncc(C#C[C@@H](C)O)cc2C1=O
15.5[16.7 µM]	-4.9	C[C@@H]1CN([C@@H](C)CO)S(=O)(=O)c2ccc(C3=CCCC3)cc2O[C@H]1CN(C)C(=O)c1ccccn1
15.1[16.7 µM]	-8.5	CCCC#Cc1cnc2c(c1)C(=O)N([C@H](C)CO)C[C@H](C)[C@H](CN(C)Cc1ccncc1)O2
57.6*[16.7 µM]	37.9	C[C@H]1CN([C@@H](C)CO)C(=O)Cc2cc(NS(=O)(=O)c3ccccc3)ccc2O[C@@H]1CN(C)Cc1ccc(Cl)c(Cl)c1
-3.6[16.7 µM]	9.0	C[C@@H]1CN([C@@H](C)CO)C(=O)c2cc(C#Cc3ccccn3)cnc2O[C@@H]1CN(C)C(=O)CCN1CCCCC1
-9.9[16.7 µM]	0.2	C[C@H](CO)N1C[C@H](C)[C@@H](CN(C)C(=O)c2cccc(F)c2)Oc2ncc(-c3cncnc3)cc2C1=O
18.3[16.7 µM]	-4.7	CCC(=O)Nc1ccc2c(c1)OC[C@@H](C)N(C(=O)c1ccccn1)C[C@H](C)[C@H](OC)CN(C)C2=O
-7.1[16.7 µM]	13.8	COc1ccccc1-c1cn(CC[C@H]2CC[C@@H](NC(=O)C3CC3)[C@@H](CO)O2)nn1
7.5[16.7 µM]	4.5	C[C@@H]1CN([C@@H](C)CO)C(=O)c2cc(-c3cccnc3)cnc2O[C@@H]1CN(C)C(=O)Nc1ccc2c(c1)OCO2
-27.3[16.7 µM]	-12.9	O=C(C[C@@H]1C=C[C@@H](NC(=O)Nc2ccc3c(c2)OCO3)[C@H](CO)O1)NCc1ccccc1
57.3*[16.7 µM]	-2.6	C[C@H](CO)N1C[C@H](C)[C@H](CN(C)C(=O)Nc2ccc(C(F)(F)F)cc2)Oc2c(NS(=O)(=O)c3ccc(F)cc3)cccc2C1=O
-10.6[16.7 µM]	2.2	C[C@@H]1CN([C@@H](C)CO)C(=O)c2cc(NC(=O)CCC(F)(F)F)ccc2O[C@@H](C)CCCCO[C@H]1CN(C)Cc1ccc(C(=O)O)cc1
-21.7[16.7 µM]	-2.0	C[C@@H]1CN([C@@H](C)CO)C(=O)c2cccc(NC(=O)C3CC3)c2O[C@H]1CN(C)S(=O)(=O)c1ccc(F)cc1
-2.8	-0.4	CN(C)CCCNC(=O)C[C@H]1C[C@H](C(=O)N2CCCCC2)[C@@]2(C)c3[nH]c4cc(-c5ccco5)ccc4c3CCN2C1=O
27.1[16.7 µM]	13.3	Cc1noc(C)c1NC(=O)N(C)C[C@@H]1Oc2ccc(NC(=O)Nc3cccc4ccccc34)cc2CC(=O)N([C@H](C)CO)C[C@@H]1C
-4.2[16.7 µM]	-8.1	C[C@@H]1CCCCO[C@H](CN(C)S(=O)(=O)c2cccs2)[C@@H](C)CN([C@@H](C)CO)C(=O)c2cc(NC(=O)Nc3ccc(C(F)(F)F)cc3)ccc2O1
0.5[16.7 µM]	4.5	C[C@@H]1CCCCO[C@H](CN(C)S(=O)(=O)c2ccccc2)[C@@H](C)CN([C@H](C)CO)C(=O)c2cc(NC(=O)CCC(F)(F)F)ccc2O1
-12.2[16.7 µM]	-8.7	COc1ccc(CNC(=O)C[C@H]2C=C[C@@H](NC(=O)c3ccc4c(c3)OCO4)[C@H](CO)O2)cc1
-21.0[16.7 µM]	-9.2	C[C@H]1CN([C@@H](C)CO)C(=O)Cc2cc(NC(=O)NC3CCCCC3)ccc2O[C@H]1CN(C)C(=O)Nc1ccccc1
6.5[16.7 µM]	-15.7	O=C(C[C@H]1C[C@H]2c3cc(NC(=O)Nc4ccc(C(F)(F)F)cc4)ccc3O[C@H]2[C@@H](CO)O1)NCCc1ccccc1
5.7[16.7 µM]	11.3	CCCC(=O)Nc1ccc2c(c1)OC[C@@H](C)N(CCC(F)(F)F)C[C@@H](C)[C@@H](OC)CN(C)C2=O
-21.6[16.7 µM]	13.9	C[C@@H]1CCCCO[C@H](CN(C)Cc2ccc3c(c2)OCO3)[C@H](C)CN([C@H](C)CO)C(=O)c2cc(NS(=O)(=O)c3ccccc3)ccc2O1
-12.8[16.7 µM]	-12.9	CN1C(=O)c2cc(NC(=O)C3CC3)ccc2OC[C@H]2O[C@H](CC(=O)NCCc3ccncc3)CC[C@@H]21

Reprinted from the part before: five entries, then new ones.
Env fusion inh	Yeast UUG start	Compound
-21.0[16.7 µM]	-9.2	C[C@H]1CN([C@@H](C)CO)C(=O)Cc2cc(NC(=O)NC3CCCCC3)ccc2O[C@H]1CN(C)C(=O)Nc1ccccc1
6.5[16.7 µM]	-15.7	O=C(C[C@H]1C[C@H]2c3cc(NC(=O)Nc4ccc(C(F)(F)F)cc4)ccc3O[C@H]2[C@@H](CO)O1)NCCc1ccccc1
5.7[16.7 µM]	11.3	CCCC(=O)Nc1ccc2c(c1)OC[C@@H](C)N(CCC(F)(F)F)C[C@@H](C)[C@@H](OC)CN(C)C2=O
-21.6[16.7 µM]	13.9	C[C@@H]1CCCCO[C@H](CN(C)Cc2ccc3c(c2)OCO3)[C@H](C)CN([C@H](C)CO)C(=O)c2cc(NS(=O)(=O)c3ccccc3)ccc2O1
-12.8[16.7 µM]	-12.9	CN1C(=O)c2cc(NC(=O)C3CC3)ccc2OC[C@H]2O[C@H](CC(=O)NCCc3ccncc3)CC[C@@H]21
8.3[16.7 µM]	-24.0	CC(C)c1cn(CC[C@H]2CC[C@@H](NS(=O)(=O)c3ccccc3)[C@H](CO)O2)nn1
-7.8[16.7 µM]	8.7	C[C@H](CO)N1C[C@H](C)[C@@H](CN(C)C(=O)NC2CCCCC2)Oc2ccc(NC(=O)NC3CCCCC3)cc2CC1=O
-30.3[16.7 µM]	-18.9	COCC(=O)N[C@H]1CC[C@H](CC(=O)NCc2ccccc2OC)O[C@H]1CO
-9.2[16.7 µM]	-5.9	CCS(=O)(=O)Nc1ccc2c(c1)C(=O)N(C)C[C@H](OC)[C@@H](C)CN(C)[C@@H](C)CO2
-15.1[16.7 µM]	14.7	C[C@H](CO)N1C[C@H](C)[C@@H](CN(C)S(=O)(=O)c2ccccc2)OCCCC[C@H](C)Oc2ccc(NC(=O)NC3CCCCC3)cc2C1=O
-19.6[16.7 µM]	2.6	Cc1ccc(S(=O)(=O)N[C@H]2C=C[C@@H](CC(=O)O)O[C@@H]2CO)cc1
-5.2[16.7 µM]	12.2	Cc1ccc(-c2cnc3c(c2)C(=O)N([C@H](C)CO)C[C@H](C)[C@@H](CN(C)C(=O)Cc2ccncc2)O3)cc1
17.5[16.7 µM]	51.4	C[C@@H]1CCCCO[C@@H](CN(C)C(=O)CCCN(C)C)[C@@H](C)CN([C@@H](C)CO)C(=O)c2cc(NC(=O)C3CCCCC3)ccc2O1
3.4[16.7 µM]	77.6	C[C@H](CO)N1C[C@H](C)[C@@H](CN(C)S(=O)(=O)c2cn(C)cn2)Oc2ccc(NC(=O)CCC(F)(F)F)cc2CC1=O
2.4[16.7 µM]	-5.3	CO[C@H]1CN(C)C(=O)c2ccc(NS(=O)(=O)c3ccccc3)cc2OC[C@@H](C)N(Cc2nccs2)C[C@H]1C
1.0[16.7 µM]	-5.7	O=C(Nc1ccccc1F)N[C@H]1CC[C@@H](CCNC(=O)C2CCOCC2)O[C@H]1CO
13.7[16.7 µM]	5.5	COc1ccc(S(=O)(=O)N(C)C[C@H]2Oc3ccc(N(C)C)cc3C(=O)N([C@H](C)CO)C[C@@H]2C)cc1
-0.8[16.7 µM]	-0.6	C[C@@H](O)C#Cc1ccc2c(c1)O[C@@H](CN(C)C(=O)CN(C)C)[C@@H](C)CN([C@@H](C)CO)S2(=O)=O
15.7[16.7 µM]	10.3	CC(C)C#Cc1cnc2c(c1)C(=O)N([C@@H](C)CO)C[C@@H](C)[C@@H](CN(C)C(=O)c1ccccn1)O2
-1.9[16.7 µM]	19.7	COc1ccc(CN(C)C[C@H]2OCCCC[C@@H](C)Oc3ccc(NC(=O)Cc4ccccc4)cc3C(=O)N([C@H](C)CO)C[C@H]2C)cc1

An excerpt; count on the stated rates, not on these rows.
